Bioassay records from PubChem.
SARS PLpro yeast – SARS-CoV PLP inhibition in yeast; S. cerevisiae expressing SARS-CoV PLpro, growth rescue; control for the full effect not named in the record; Potency, µM (doses to about 32.9 µM), for the others: at the highest dose activity, positive = growth rescue; 330,000 compounds, 0.19% hits; further: 0% is about no effect; nearly all actives have a fitted effect of over 55% in size; growth read by luminescence after 48 h
Marburg entry inh – Marburg virus entry inhibition. Marburg virus pseudotyped entry inhibition, cell reporter; control for the full effect not named in the record; about a third of the inactives were read at about 46 µM. Potency, µM (titrated, usually from 37.8 µM), for inactives: top-dose activity change, negative = inhibition, hits mostly inhibitors. 300,000 compounds, 1.8% hits. AID 540276; active = well fitted inhibition curve with a large enough effect; inconclusive = small, poorly fitted or top-dose-only effect, or effect the other way; inactive = flat fitted curve, though single readings scatter; tested in HEK293 cells; about a fifth of its hits are not listed in these tables; further: on the % scale 0 is the no-effect control and ±100 the full control effect; luciferase read-out
Cruzain inh noDet – inhibitors of Trypanosoma cruzi cruzain without detergent; P25779; purified cruzain, Z-FR-AMC fluorescence, no detergent; Potency, µM, for the others: max response, negative = inhibition, most hits filed as inhibitors; 200,000 compounds, 2.3% hits; AID 1476; active means well fitted curve in the direction sought with a large enough effect; inconclusive means small, poorly fitted or top-dose-only effect, or another doubt; inactive means no such curve, though single readings can be large; an effect the other way counts as inactive or inconclusive;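 further: plate controls were enzyme without inhibitor for no effect and buffer without enzyme for full effect; nearly all actives have a fitted effect of over 40% in size; top concentration of the series not given in the record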
Target sequence (P25779 123-467 limits assumed): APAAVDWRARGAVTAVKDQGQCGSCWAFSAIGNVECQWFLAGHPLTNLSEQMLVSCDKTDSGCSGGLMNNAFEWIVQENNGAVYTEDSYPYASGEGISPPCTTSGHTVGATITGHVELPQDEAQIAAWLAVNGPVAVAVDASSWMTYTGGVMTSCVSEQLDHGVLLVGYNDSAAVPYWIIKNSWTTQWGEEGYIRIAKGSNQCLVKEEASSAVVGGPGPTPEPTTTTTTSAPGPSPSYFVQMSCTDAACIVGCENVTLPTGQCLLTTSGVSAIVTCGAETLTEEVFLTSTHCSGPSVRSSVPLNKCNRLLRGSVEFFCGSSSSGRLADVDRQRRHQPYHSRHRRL
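Purified cruzain at 1.5 nM, pre-incubated 15 min with compound at room temperature in 100 mM sodium acetate pH 5.5, 5 mM DTT, 0.00005% Triton X-100. Reaction started with 2 uM Z-FR-AMC; AMC fluorescence increase over 60 s gives rate.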
Cruzain Triton – blocks cruzain activity in presence of Triton detergent. 200,000 compounds, 0.43% hits. Potency, µM, for the others: max response, negative = inhibition, usual class: inhibitors. P25779. purified cruzain, Z-FR-AMC fluorescence, 0.01% Triton; active means well fitted curve in the direction sought with a large enough effect; inconclusive means small, poorly fitted or top-dose-only effect, or another doubt; inactive means no such curve, though single readings can be large; an effect the other way counts as inactive or inconclusive;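 further: plate controls were neutral wells for no effect and buffer without enzyme for full effect; nearly all actives have a fitted effect of over 40% in size; top concentration of the series not given in the record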
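Detergent-containing arm of a paired screen for aggregation-based inhibition: 0.01% Triton X-100 present. Cruzain at 1.5 nM cleaved 2 uM Z-FR-AMC at pH 5.5 with 5 mM DTT; AMC fluorescence gain over 60 s measured activity.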
StopGo reporter – FMDV 2A StopGo reporter, luciferase signal | human cells with a luciferase reporter of 2A StopGo recoding; control for the full effect not named in the record | Potency, µM (highest dose often 57.9 µM), for inactives: top-dose signal change, negative = less light | 410,000 compounds, 1.2% hits | AID 1159524; active = well fitted falling curve with a large enough effect; inconclusive = small, poorly fitted or top-dose-only effect; inactive = no such curve, though single readings can be large or run the other way; tested in HEK293T cells; further: on the % scale 0 is the no-effect control and ±100 the full control effect; nearly all actives have a fitted effect of over 45% in size; luciferase light after 4 h
Lassa entry inh – blocks Lassa virus binding to or entry into cells; Lassa virus pseudotype entry inhibition, cell reporter; control for the full effect not named in the record; AID 540256; Potency, µM (top dose mostly 37.9 µM), inactives show at the highest dose activity change, negative = inhibition, usual class: inhibitors; 300,000 compounds, 1.2% hits; active means well fitted inhibition curve with a large enough effect; inconclusive means small, poorly fitted or top-dose-only effect, or effect the other way; inactive means flat fitted curve, though single readings scatter; tested in HEK293 cells; further: on the % scale 0 is the no-effect control and ±100 the full control effect; nearly all actives have a fitted effect of over 50% in size; luciferase read-out
RE007 growth inh – less growth of the S. pombe RE007 Vpr strain; S. pombe RE007 Vpr strain, BacTiter-Glo ATP luminescence, 24 h; control for the full effect not named in the record; Potency, µM (series often up to 92.2 µM), without a hit: top-dose activity change, negative = less growth; 360,000 compounds, 0.21% hits; active = well fitted falling curve with a large enough effect; inconclusive = small, poorly fitted or top-dose-only effect; inactive = no such curve, though single readings can be large or run the other way;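 further: on the % scale 0 is the no-effect control and ±100 the full control effect; nearly all actives have a fitted effect of over 50% in size; the assay follows cell death caused by Vpr and the record does not say whether a fall means rescue or toxicity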
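Fission yeast strain RE007, carrying one chromosomally integrated HIV-1 vpr copy, was seeded at OD 0.01 in PMG+AL medium with 23 nL pinned compound. After 24 h at 30 °C and 99% humidity, viability was read by BacTiter-Glo luminescence.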
NS1 inh – blocks influenza NS1 protein function. Potency, µM (series often up to 46.1 µM), without a hit: at the top dose activity, positive = more growth. S. cerevisiae slowed by influenza A NS1, growth recovery by OD600. AID 2326. 270,000 compounds, 0.4% hits; further: actives are rising curves; nearly all actives have a fitted effect of over 50% in size
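A cell-based growth assay was used: compounds that relieve NS1-induced slow growth of budding yeast raise OD600. Assay medium was yeast nitrogen base with ammonium sulphate and -URA supplement, pH 6.0, with 2% galactose.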
* marks the source's active call; other numbers are inactive results; ? = inconclusive; . = no result given; & = joins results of further samples; [ ] = dose if it differs, or a comment. Unless noted, the call rests on the fitted dose curve; in most records, active means well fitted rising curve with a large enough effect; inconclusive means small, poorly fitted or top-dose-only effect; inactive means no such curve, though single readings can be large or run the other way. Potency means the concentration at half of the fitted maximal effect.

A first look, two compounds:
SMILES	SARS PLpro yeast	Marburg entry inh	Cruzain inh noDet	Cruzain Triton	StopGo reporter	Lassa entry inh	RE007 growth inh	NS1 inh
O=C(CCS(=O)(=O)c1ccccc1Cl)NC1CCCCCC1	-2%	?	.	.	85%[activator]	21%	-9%	.
Cn1c(NC(=O)c2cccs2)c(-c2cccs2)c(=O)c2ccccc21	-3%	?	0%	-0.2%	-17%	?	-21%	?

This part in full, previewed entries included:
SMILES	SARS PLpro yeast	Marburg entry inh	Cruzain inh noDet	Cruzain Triton	StopGo reporter	Lassa entry inh	RE007 growth inh	NS1 inh
O=C(CCS(=O)(=O)c1ccccc1Cl)NC1CCCCCC1	-2%	?	.	.	85%[activator]	21%	-9%	.
Cn1c(NC(=O)c2cccs2)c(-c2cccs2)c(=O)c2ccccc21	-3%	?	0%	-0.2%	-17%	?	-21%	?
O=S(=O)(c1ccc(F)cc1)N1CCN(Cc2ccccn2)CC1	0%	13%[46.1 µM]	.	.	-5%	4%[46.1 µM]	-2%	2%
COc1ccc(C(=S)N2CCOCC2)cc1OC(=O)c1ccccc1	-2%	3%[46.1 µM]	.	.	0%	-1%[46.1 µM]	5%	-19%
CC1CCN(C(=O)/C(=C\c2ccccc2)NC(=O)c2ccccc2)CC1	1%	-1%[46.1 µM]	.	.	7%	.	2%	2%
Cn1nnnc1SCC(=O)NCc1ccccc1	9%	0%	15%	-0.5%	7%	-10%	0%	13%
O=C(NCCCN1CCOCC1)C(=O)N/N=C/c1ccccc1O	1%	7%	.	.	15%	1%	6%	0%
CC(=O)Nc1ccccc1C(=O)OCc1cccc(F)c1	-1%	-7%[46.1 µM]	.	.	18%	15%	5%	-10%
COc1ccccc1NS(=O)(=O)c1c(C(=O)N2CCCC2)c(C)n(C)c1C	1%	.	.	.	11%	.	-2%	5%
O=C(NCc1ccco1)C1CCCN1S(=O)(=O)c1ccc2ccccc2c1 (stereo not given)	-3%	1%&1%	5%	6.1%	-3%	-6%	-5%	-2%
COc1ccc(NS(=O)(=O)c2ccc3c(c2)n(C)c(=O)c(=O)n3C)cc1Cl	.	?	-17%	-4.9%	41%[activator]	13%[46.1 µM]	.	.
CCOC(=O)c1c(C)oc2nc(C)nc(NCc3ccccc3Cl)c12	.	.	-4%	-0.8%	-17%	2%[46.1 µM]	.	.
COC(=O)c1cc(=O)n(Cc2ccc3c(c2)OCO3)c(=Nc2ccc(F)c(Cl)c2)s1	1%	1%	20µM*	-1.5%	?	.	0%	-12%
O=C(COC(=O)c1cc(Cl)nc(Cl)c1)Nc1ccc(Cl)c(S(=O)(=O)N2CCOCC2)c1	-11%	14%[46.1 µM]	.	.	-10%	6%[46.1 µM]	-2%	.
Cc1cc(/C=C2\C(=O)NC(=O)N(Cc3ccco3)C2=O)c(C)n1-c1ccc(C(=O)O)cc1	1%	-1%	.	.	-4%	15%	-15%	2%
CC(=O)c1ccc(OC(=O)COc2ccccc2Cl)cc1	-2%	.	.	.	-6%	.	4%	0%
CCOC(=O)c1c(C)[nH]c(C(=O)Cn2nnc(-c3ccccc3)n2)c1C	-1%	-18%	9%	3.3%	12%	1%	-10%	-6%
O=C(O)CC(C(=O)OCC1CCCO1)N1CCOCC1 (stereo not given)	2%	20%	3%	5.5%	20%	-1%	8%	2%
O=C(Nc1ccc(N2CCCC2)cc1)c1ccccc1[N+](=O)[O-]	0%	.	.	.	44%[activator]	.	-3%	8%
CCCNC(=O)c1ccc2c(=O)c(O)c(-c3ccc(F)cc3)[nH]c2c1	13µM*	.	.	.	-15%	.	8%	-2%
CCCCCCn1ccc(=N)cc1	6%	13µM*	-2%	5.4%	0%	?	-24%	-20%
Fc1ccc(NC(=S)N2CCc3ccccc32)cc1	7%	.	.	.	37%	.	0%	2%
Cc1ccc(S(=O)(=O)N2CCN(Cc3cc(C(C)(C)C)ccc3O)CC2)cc1	-7%	.	.	.	-11%	.	-4%	-2%
COc1ccc(C(=O)Nc2nc(CC(=O)NCCc3cccc(OC)c3)cs2)cc1	-7%	-8%	.	.	?	-27%	-2%	.
O=C(COc1ccccc1Cl)Nc1nnc(S(=O)(=O)N2CCCC2)s1	-6%	.	?	-2.4%	-5%&-7%	-6%[46.1 µM]	2%	-15%
CCOC(=O)c1sc(C)c(C(=O)NCC(C)(C)CN(C)C)c1N	6%	-8%[46.1 µM]	-9%	1.3%	-12%	-9%	-17%	-7%
CCN1C(=O)c2ccccc2Sc2ccc(C(=O)NCCCN3CCCCC3)cc21	0%	.	.	.	-14%	.	2%	-2%
COc1cccc(NS(=O)(=O)c2cn(C)c(=O)n(C)c2=O)c1	1%	.	-1%	-1.6%	0%	.	-7%	-7%
CCC(=Nc1ccc2c(c1)CCC2)c1c(O)n(-c2ccc(OC)cc2)c(=O)[nH]c1=O	-2%	5%	.	.	?	?	7%	-4%
CCOc1ccc(N2CC(c3nc4ccccc4n3CCOc3ccccc3OC)CC2=O)cc1 (stereo not given)	.	-23%[46.1 µM]	-5%	-7.8%	-21%	?	.	.
C/C(=N/NC(=O)CNC(=O)CCc1ccccc1)c1ccc(Cl)cc1	1%	-28%	.	.	8%	16%	-3%	-3%
CCOC(=O)CP(=O)(c1ccccc1)c1ccccc1	-4%	4%	-21%	3.7%	8%	9%	-3%	5%
COc1ccc(CCNC(=O)c2sc3nc4n(c(=O)c3c2C)CCCC4)cc1OC	.	.	7%	-3.3%	0%	-17%[46.1 µM]	.	.
FC(F)(F)c1cc(Nc2ccccc2)nc(-c2ccccn2)n1	-4%	.	.	.	9%	.	-1%	-6%
Fc1cc(Br)ccc1NC(=S)NCCc1ccccc1	-20%	-2%	-4%	-13%	.	8%	?	-111%
CC(=O)Nc1cc(NC(C)=O)cc(C(=O)OCC(=O)Nc2ccc(S(=O)(=O)NC3=NCCCCC3)cc2)c1	?	-12%[46.1 µM]	.	.	-15%	?	-6%	-11%
COc1ccc(/C=N/NC(=O)c2c(-c3ccccc3)noc2C)cc1[N+](=O)[O-]	-7%	.	.	.	?	.	8%	-1%
O=P(O)(O)c1ccccc1OCCOCCOCCOCCOc1ccccc1P(=O)(O)O	-3%	?	.	.	34%[activator]	?	1%	.
COC(=O)c1c(-c2ccc(Cl)cc2)noc1N1CCN(c2ccc(C)cc2C)CC1	.	.	-17%	3.1%	-28%	10%[46.1 µM]	.	.
CCOc1ccc(S(=O)(=O)N2CCN(C(=O)c3ccco3)CC2)cc1	-5%	?	.	.	?	7%	-4%	-13%
O=C(/C=C/c1ccc(Cl)c(Cl)c1)N1CCOCC1	14%	?	.	.	43%[activator]	18%[46.1 µM]	-1%	-47%
Cc1nc(NC(C)c2ccccc2)c2c3c(sc2n1)CCC3 (stereo not given)	10%	?	-4%	-0.6%	-24%	-1%	0%	-15%
COc1cc(C(CCN2CCN(c3ccccc3)CC2)c2c(OC)cc(OC)c3c(C)cc(=O)oc23)cc(OC)c1OC (stereo not given)	2%	.	.	.	-10%	.	-7%	-7%
Cc1ccc(OCCCn2c(CO)nc3ccccc32)cc1	1%	-33%	3%	0.4%	-19%	-27%	4%	-22%
CN(Cc1cnn(C)c1)C(=O)C1CCC(=O)N(C2CCCCCC2)C1 (stereo not given)	-6%	8%	.	.	-1%	6%	-12%	3%
C[C@]12CC[C@H](OC(=O)CCC(=O)O)CC1=CCC1C2CC[C@@]2(C)C1CC[C@@H]2OC(=O)CCC(=O)O (stereo not given in full)	3%	?	.	.	42%[activator]	?	3%	.
COc1cc(OC)c(NC(=O)N2CCc3cc(OC)c(OC)cc3C2CC(=O)O)cc1Cl (stereo not given)	.	.	16%	-0.7%	-22%	4%[46.1 µM]	.	.
CN(C(=O)c1ccc(N2CCOCC2)c([N+](=O)[O-])c1)C1CCCCC1	-1%	-15%	.	.	17%	3%	-9%	1%
CCOc1cc(S(=O)(=O)N2CCCCC2)ccc1Cl	-9%	-9%	3%	-5.0%	-16%	-26%	0%	-13%
Fc1ccc(Cn2c(SCc3ccc(F)c(F)c3)nnc2C(F)(F)F)cc1	-15%	-10%	-1%	-5.0%	?	0%	0%	-58%

Further records follow:
SMILES	SARS PLpro yeast	Marburg entry inh	Cruzain inh noDet	Cruzain Triton	StopGo reporter	Lassa entry inh	RE007 growth inh	NS1 inh
CCC(=O)N1CCc2cc(S(=O)(=O)NCCC(=O)Nc3ccc(OC)cc3)ccc21	4%	.	.	.	5%	.	-12%	1%
Cc1[nH]c2ccccc2c1C(=O)CSc1ccc(Cl)cc1	0%	-3%[14.2 µM]	.	.	12%	-8%	4%	6%
Cc1ccc(S(=O)(=O)C(F)(F)F)cc1NC(=O)c1cccnc1	14%	-23%	-6%	2.7%	-12%	1%	0%	1%
COc1ccc(NC(=S)N(CCCOC(C)C)C2CCN(C(C)=O)CC2)cc1Cl	-1%	.	.	.	24%	.	7%	-9%
Nc1cc(Cl)ccc1N1CCCC1	-2%	19%[46.1 µM]	.	.	-7%	11%	-8%	.
CNS(=O)(=O)c1cc(Cl)ccc1Sc1ccccc1C(=O)O	0%	?	.	.	-15%	9%	27%	2%
CCN1CCN(c2ccc(NC(=O)c3cccc(N4CCCC4=O)c3)cc2)CC1	-1%	1%[46.1 µM]	.	.	26%	3%[46.1 µM]	-15%	-32%

Just StopGo reporter, for some of the entries so far:
compound	StopGo reporter
Cc1[nH]c2ccccc2c1C(=O)CSc1ccc(Cl)cc1	12%
Cc1ccc(S(=O)(=O)C(F)(F)F)cc1NC(=O)c1cccnc1	-12%
COc1ccc(NC(=S)N(CCCOC(C)C)C2CCN(C(C)=O)CC2)cc1Cl	24%
Nc1cc(Cl)ccc1N1CCCC1	-7%
CNS(=O)(=O)c1cc(Cl)ccc1Sc1ccccc1C(=O)O	-15%
CCN1CCN(c2ccc(NC(=O)c3cccc(N4CCCC4=O)c3)cc2)CC1	26%
